# Six1-Eya2 blk: blocks human Six1 binding to Eya2. 0.56% of 360,000 active. AID 651725. activity change, % (no concentration beside the values). AlphaScreen GST-Six1/His-Eya2 binding, biochemical; hits give low values; control for the full effect not named in the record; in the data active = activity change below about -65%; inconclusive = about -30% to -65%; inactive = above about -30%; also: % is scaled to controls: 0 for no effect and ±100 for the full control effect; compound concentration not given in the record
# Target sequence (O00167 whole entry, looked up): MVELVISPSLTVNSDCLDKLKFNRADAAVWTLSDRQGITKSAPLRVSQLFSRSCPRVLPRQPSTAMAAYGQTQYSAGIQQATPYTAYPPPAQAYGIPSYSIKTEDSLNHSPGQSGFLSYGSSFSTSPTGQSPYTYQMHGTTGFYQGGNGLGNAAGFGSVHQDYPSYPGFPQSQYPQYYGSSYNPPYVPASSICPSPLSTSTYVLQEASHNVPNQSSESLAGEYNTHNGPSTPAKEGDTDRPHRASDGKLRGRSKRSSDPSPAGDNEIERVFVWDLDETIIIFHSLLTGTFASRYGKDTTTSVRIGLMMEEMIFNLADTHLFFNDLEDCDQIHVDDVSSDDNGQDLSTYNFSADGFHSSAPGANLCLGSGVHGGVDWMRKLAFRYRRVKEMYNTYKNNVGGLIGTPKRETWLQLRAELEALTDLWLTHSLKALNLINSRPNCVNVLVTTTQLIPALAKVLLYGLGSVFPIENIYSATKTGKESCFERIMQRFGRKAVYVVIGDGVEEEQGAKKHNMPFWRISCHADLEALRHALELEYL
# Target sequence (Q15475 whole entry, looked up): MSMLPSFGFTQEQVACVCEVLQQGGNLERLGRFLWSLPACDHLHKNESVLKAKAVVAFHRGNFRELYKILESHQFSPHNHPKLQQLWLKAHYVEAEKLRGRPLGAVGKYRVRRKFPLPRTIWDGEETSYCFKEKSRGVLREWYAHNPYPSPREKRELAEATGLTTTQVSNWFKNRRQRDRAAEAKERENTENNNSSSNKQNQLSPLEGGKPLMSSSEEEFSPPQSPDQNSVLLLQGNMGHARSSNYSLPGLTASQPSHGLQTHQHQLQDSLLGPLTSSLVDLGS
#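 Homogeneous AlphaScreen proximity assay pairing GST-Six1 with His-tagged Eya2 (added as 5X mix: 250 nM and 500 nM) in 50 mM Tris pH 8.0, 300 mM NaCl, 1 mM TCEP. Glutathione donor and nickel acceptor beads; 1 h, 37 °C, dark.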
# gsp ag: agonists of gsp mutant (McCune-Albright syndrome) | gsp mutant cells, cAMP HTRF, 30 min; control for the full effect not named in the record | Potency, µM (doses to about 76.9 µM), inactives show at the top dose activation (cAMP increase), most hits filed as activators | 0.13% of 340,000 active | AID 624287; active = well fitted activation curve with a large enough effect; inconclusive = small, poorly fitted or top-dose-only effect, or another doubt; inactive = no such curve, though single readings can be large or run the other way; cell line not stated here;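 also: phosphodiesterase inhibitor Ro 20-1724 added with compounds to block cAMP breakdown; potency is read from the fitted curve at half-maximal effect; nearly all actives have a fitted effect of over 60% in size; about a fifth of the inactives were tested at one dose only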
#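 Cells in DMEM/10% FBS with G418 were pretreated with compounds in DMSO plus […] (300 uM stock) for 30 min at 37C. cAMP was measured by HTRF (cAMP-d2 plus anti-cAMP antibody-K) after 30 min at room temperature.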
# D2 ag: human D2 receptor agonism in beta-arrestin assay. P14416. DiscoveRx PathHunter D2 beta-arrestin, luminescence, 90 min; 100% = 57 uM dopamine signal. activation, % (test concentration not listed). 0.084% of 360,000 active. AID 624465; in the data active = activation above about 40%; inconclusive = about 15% to 40%; inactive = below about 15%; also: compound concentration not given in the record; the text of the record calls up to 30% inactive
#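 Agonist mode: compounds alone added to overnight-plated D2 PathHunter cells for 90 min at 37 C, with 57 uM final dopamine (EC100) defining full response. Beta-arrestin recruitment detected by chemiluminescent reagent, read after 1 h at ambient temperature.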
# CtBP-E1A blk: blocks the CtBP interaction with E1A; AlphaScreen GST-E1A/His-CtBP binding, 1536-well; hits give low values; control for the full effect not named in the record; activity change, % (concentration not given with the values); 0.49% of 340,000 active; AID 651724; in the data active means activity change below about -65%; inconclusive means about -30% to -65%; inactive means above about -30%; also: % is scaled to controls: 0 for no effect and ±100 for the full control effect
#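 In 5 uL wells, 23 nL compound meets equimolar GST-E1A and His-CtBP (5X stock 125 nM each) for 2 h, 37 °C. Beads (5X, 50 ug/mL) then 1 h, 37 °C, dark.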
# gsp antagonist: antagonists of gsp mutant (McCune-Albright syndrome). AID 624288. gsp-mutant cells, cAMP HTRF, 30 min; control for the full effect not named in the record. Potency, µM (highest dose often 76.9 µM), without a hit: top-dose activity change, negative = inhibition, usual class: inhibitors. 0.4% of 340,000 active; active = falling curve of any shape with a large fitted effect; inconclusive = falling curve, mostly with a smaller effect; inactive = flat or rising curve; cell line not stated here;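 also: intracellular cAMP measured with PDE inhibitor Ro 20-1724 present during compound exposure; potency is read from the fitted curve at half-maximal effect; % is scaled to controls: 0 for no effect and ±100 for the full control effect; nearly all actives have a fitted effect of over 65% in size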
#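 G418-selected cells were plated in DMEM/10% FBS for 16-24 h at 37C, then treated with compounds plus the PDE inhibitor […] (300 uM solution added) for 30 min at 37C. Intracellular cAMP was measured by HTRF after 30 min lysis at room temperature.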
# D2 potentiator: potentiates the human D2 dopamine receptor allosterically | P14416 | DiscoveRx D2 beta-arrestin cells, luminescence, 90 min; 100% = 57 uM dopamine signal | potentiation, % (no concentration beside the values) | 0.23% of 360,000 active | AID 624464; active = potentiation of 50% or more; inconclusive = 30% to 50%; inactive = 30% or less;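 also: compound concentration not given in the record; tested on top of an EC20 dose of dopamine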
#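 PathHunter D2 cells, attached overnight at 37 deg C, received compound in DMSO plus dopamine at EC20 (50 nM final) for 90 min at 37 deg C. Beta-arrestin recruitment was read as luminescence after 1 h with detection reagent at ambient temperature.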
# * = called active by the depositor; ? = inconclusive; . = no result given; [ ] = remark or other dose.
SMILES,Six1-Eya2 blk,gsp ag,D2 ag,CtBP-E1A blk,gsp antagonist,D2 potentiator
O=C(NNc1ccccn1)c1ccc(Cl)nc1,-9,1%[15.4 µM],-6.6,3,-3%,-5
Cc1ccc2[nH]cc(CCNC(=O)c3ccc([N+](=O)[O-])cc3)c2c1,3,?,2.1,4,?,-1
O=C(OCC(O)COc1ccccc1)c1ccc([N+](=O)[O-])cc1 (stereo not given),-16,-18%,1.3,.,5%,-8
c1csc(-c2nc3ccccn3c2NC2CCCCC2)c1,-5,-10%[15.4 µM],-16,7,-8%,0
Cc1nc([N+](=O)[O-])cn1CC(=O)Nc1ccc(F)c(Cl)c1,7,-21%,-1.1,.,4%,0
Cc1noc(C)c1COc1ccccc1C(=O)NCCOc1ccccc1F,-1,21%,-0.5,.,7%,5
CCOc1ccc(N2Cc3ncccc3C2=O)cc1,-2,?,-1.4,3,-18%,0
CC1(C(=O)NCc2cccc(C(F)(F)F)c2)CCN1C1Cc2ccccc2C1 (stereo not given),9,.,-1.9,7,.,-6
COc1cc(NC(=O)Cn2c(=O)n(CC3CCCO3)c(=O)c3cc(OC)c(OC)cc32)cc(OC)c1 (stereo not given),-8,-55%[inhibitor],-2.0,0,-14%,-5
O=C1CC(NCC2CCCO2)C(=O)N1c1ccc(Cl)cc1 (stereo not given),3,-46%[inhibitor],0.0,.,4%,-9
Cc1cc(O)ccc1-c1ccc2nncn2c1,-12,.,-4.9,-6,.,-4
COc1cc(C(=O)OCC(=O)NC2CCCCC2)cc2c1OCCO2,1,-8%,-2.0,.,5%,-1
CC(=O)NNc1ncnc2c1cnn2-c1ccc(C)c(C)c1,13,-1%[15.4 µM],-4.2,4,5%,3
O=C(NCCc1ccccc1)C(c1ccc(F)cc1)N(C(=O)c1csnn1)C1CC1 (stereo not given),1,-13%,2.3,7,4%,-2
COc1cc(NC(=O)N2CCOCC2)cc(OC)c1,9,-7%,1.5,1,-8%,5
O=C(O)c1cc(C2CC2)nn1-c1ccccc1,-3,-22%,-4.2,10,-11%,-9
Cc1nn(-c2ccccc2)c(NC(=O)c2cccs2)c(-c2ccccc2Cl)c1=O,-2,-24%[15.4 µM],5.7,-7,6%,-30
CC(C)(C#N)C(C)(C)c1nn[nH]n1,6,6%,3.1,11,10%,-10
Cc1cc(N2CCCCC2C)nc(-c2ccccc2O)n1 (stereo not given),0,-10%[15.4 µM],-0.7,23,-19%,4
CN(c1ccccc1)c1nc(N)c([N+](=O)[O-])c(Nc2ccccc2)n1,-21,-13%,-9.9,-19,5%,-6

# Just D2 ag, for some of the entries so far:
Structure | D2 ag
Cc1noc(C)c1COc1ccccc1C(=O)NCCOc1ccccc1F | -0.5
CCOc1ccc(N2Cc3ncccc3C2=O)cc1 | -1.4
CC1(C(=O)NCc2cccc(C(F)(F)F)c2)CCN1C1Cc2ccccc2C1 (stereo not given) | -1.9

# Next part.
SMILES,Six1-Eya2 blk,gsp ag,D2 ag,CtBP-E1A blk,gsp antagonist,D2 potentiator
O=[N+]([O-])c1cccc(OCCCN2CCC(Cc3ccccc3)CC2)c1,-25,-31%[inhibitor],-2.3,-18,5%,-12
Cc1ccc(OCC(=O)NCc2ccco2)c([N+](=O)[O-])n1,2,-5%[15.4 µM],-0.4,2,12%,1
Cc1ccc(-n2ccc(=O)c(C(=O)Nc3ccc(S(=O)(=O)Nc4nccc(C)n4)cc3)n2)cc1,5,?,2.9,4,-4%,11
Nc1nonc1C(=O)OCC(=O)N1CCOCC1,3,-27%,-3.2,5,5%,-12
Cc1ccccc1C(=O)N1CCC(C(=O)Nc2ccc(S(=O)(=O)N3C(C)CCCC3C)cc2)CC1 (stereo not given),-4,-17%,-1.0,-3,-16%,1
CCc1ccc(CNC(=O)C2CCN(S(=O)(=O)N3CC(C)CC(C)C3)CC2)cc1 (stereo not given),0,7%,-1.4,0,7%,3
COc1cccc(N(C(=O)c2ccco2)c2nc(-c3sc(NC(=O)c4ccco4)nc3C)cs2)c1,-4,.,-3.7,-7,?,-3
COc1cc(C2NC(=S)NC(c3ccccc3)=C2C(C)=O)ccc1O (stereo not given),10,9%,1.7,.,0%,-11
O=C(NCc1ccccc1OC(F)(F)F)C1CCC(=O)N(Cc2cccc(F)c2)C1 (stereo not given),3,-2%,-4.2,-24,9%,-32
CC(C)c1cc(-c2cc(-c3ccc(Cl)cc3)on2)nc(NC2CCCC2)n1,13,-46%[inhibitor],1.8,-20,6%,-3

# Shown with bars between the fields: 2 of the compounds above
canonical_smiles | Six1-Eya2 blk | gsp ag | D2 ag | CtBP-E1A blk | gsp antagonist | D2 potentiator
CCOc1ccc(N2Cc3ncccc3C2=O)cc1 | -2 | ? | -1.4 | 3 | -18% | 0
CC1(C(=O)NCc2cccc(C(F)(F)F)c2)CCN1C1Cc2ccccc2C1 (stereo not given) | 9 | . | -1.9 | 7 | . | -6

# Next part.
SMILES,Six1-Eya2 blk,gsp ag,D2 ag,CtBP-E1A blk,gsp antagonist,D2 potentiator
CC1CCC(NC(=O)CNC(=O)Cc2cccc3ccccc23)CC1 (stereo not given),1,12%[15.4 µM],-5.6,5,10%,-4
CN(C)C(=S)Nc1ccc(Cl)cc1,8,-36%[inhibitor],2.7,4,5%,-3
CCOc1cc(NC(=S)NCCCOC)c(OCC)cc1NC(=O)c1ccco1,-10,-16%,-2.4,-9,17%,-21
COC(=O)c1ccc(NC(=O)c2c(C(=O)Nc3ccccc3)sc3nc(C)cc(=O)n23)cc1,2,24%,-1.7,.,2%,-10
O=C(CN1CCN(CCC(=O)Nc2ccccc2F)CC1)Nc1ccc(F)cc1,1,10%,-3.3,5,5%,-21
O=C(CNC(=O)c1ccccn1)N/N=C/c1ccccc1,4,18%,3.0,14,3%,-4
O=C(Oc1ccccc1C(=O)Oc1ccccc1)c1ccco1,21,0%,-2.5,12,-26%,1
Cc1sc2nc(SCC(=O)Nc3ccc(Cl)c(C(=O)O)c3)[nH]c(=O)c2c1C,6,9%[15.4 µM],-3.8,7,-2%,-1
CC1(C)CC(=O)C2=C(C1)N(c1ccc(F)cc1)C(=O)CC2c1ccccc1 (stereo not given),-3,-14%,-0.9,0,3%,6
O=c1cc(C(F)(F)F)nc(-c2ccccc2)[nH]1,4,10%,-1.3,6,-16%,1
Cc1ccc(NC(=O)COC(=O)c2ccc3ncsc3c2)c(C)c1,0,?,-3.1,-11,.,-15
CCN(CC)S(=O)(=O)c1ccc(N2CC(C(=O)N3CCOCC3)CC2=O)cc1 (stereo not given),2,-7%,2.1,3,9%,0
Cc1ccc(Cn2cnc3ccccc32)cc1,6,-28%,2.4,6,-7%,-2
CCOC(=O)Cc1nnc(NC(=O)c2cccc(OCC)c2)s1,-1,-3%,-3.0,8,-8%,0
COc1ccc(CN2CCN(CC(=O)Nc3ccccc3C(=O)NC3CC3)CC2)cc1F,-18,-66%[inhibitor],-4.0,-18,0%,-4
Cn1cc([N+](=O)[O-])c(C(=O)N/N=C/c2ccccc2)n1,6,12%,-2.4,7,10%,-12
COc1ccc(S(=O)(=O)Nc2ccc(F)c(F)c2)cc1Cl,3,-16%,4.9,4,4%,-1
Oc1c(Cl)cc(Cl)cc1C=Nc1ccc2c(c1)OCCO2,-4,-24%,-11,-5,-22%,-29
Cn1c(=O)c2c(nc(SCCN3CCOCC3)n2Cc2ccc(F)cc2)n(C)c1=O,-2,10%,0.6,0,-3%,-8
O=C(NNCc1ccccc1)c1ccccn1,-10,-12%,-1.6,-14,7%,-7
CCOc1ccc(CCNC(=O)COC(=O)c2ccc(S(=O)(=O)N3CCCC3)cc2)cc1OCC,17,3%[15.4 µM],-3.9,0,-11%,-69
COc1ccc(C2Nc3ccccc3C(=O)N2NS(=O)(=O)c2ccc(C)cc2)cc1 (stereo not given),7,12%[15.4 µM],-5.0,4,-3%,-4
CC(=O)NCCOc1ccc(C(=O)O)cc1,6,?,0.3,5,6%[15.4 µM],-4
COc1cc(Cn2c3ccc(NC(=O)CC(C)c4ccccc4)cc3c(=O)n2C)ccc1F (stereo not given),-21,.,-0.7,-20,.,-18
Cc1cc(C)n2c(SCC(O)=C(C#N)c3nc4ccccc4[nH]3)nnc2n1,-29,?,1.9,-24,0%,0
CN(Cc1ccc(Cl)cc1)C(=O)CNC(=O)C12CC3CC(CC(C3)C1)C2,4,-28%,1.5,14,-23%,-7
CCCCC(c1nnnn1CS(=O)(=O)c1ccc(C)cc1)N1CCC(C(N)=O)CC1 (stereo not given),4,2%[15.4 µM],-6.0,13,0%,-1
O=C(N/N=C/c1c(O)n(Cc2ccco2)c(=O)[nH]c1=O)c1ccccc1,-86*,-37%,-7.4,-85*,10%,-9
CCC1CCCCN1C(=O)c1ccc2nc(Cc3ccc(OC)cc3)oc2c1 (stereo not given),-2,-4%,2.5,0,0%,-3
COCCCNC(=O)c1c(F)c(F)c(F)c(F)c1F,4,1%,0.0,3,7%,-21
CCOC(=O)c1c(NC(=O)/C=C\C(=O)O)sc(C)c1-c1ccccc1,-6,7%[15.4 µM],-5.0,5,-1%,-1
O=C(Nc1ccc(Cl)cc1)Nc1ccccc1NS(=O)(=O)c1cccs1,-12,2%,0.5,0,-18%,-8
CCCCN(C(=O)c1cc(=O)[nH]c2ccccc12)c1c(N)n(CCC)c(=O)[nH]c1=O,-1,-1%[15.4 µM],-6.3,11,12%,-1
CCOc1ccc(C(=O)CCC(=O)N2CCN(c3ccccc3O)CC2)cc1,4,-10%,2.7,-5,7%,-7
Cc1cccc(NS(=O)(=O)c2ccc(NC(=O)CN(c3cc([N+](=O)[O-])ccc3C)S(C)(=O)=O)cc2)c1,-11,17%,-0.1,27,-24%,15
Cc1cc(F)ccc1S(=O)(=O)Nc1ccc(O)c(Sc2ncn[nH]2)c1,5,?,?,0,3%,11
O=S(=O)(c1ccccc1)N1N=C(c2cccs2)CC1c1ccc(F)cc1 (stereo not given),-1,-5%,-1.5,0,2%,-5
CC(Sc1n[nH]c(-c2ccccc2)n1)C(=O)c1c(N)n(C)c(=O)n(C)c1=O (stereo not given),-8,-8%,-0.6,-18,2%,-11
COc1ccc(O)c(/C=C(\C#N)C(=O)Nc2cccnc2)c1,-5,6%,0.9,?,2%,4
c1ccc(N(c2ccccc2)c2nc(-n3ccnc3)nc(-n3ccnc3)n2)cc1,4,-2%,-1.6,6,20%,11
COc1ccc(NC(=O)Cn2cnc3sc(C)c(S(=O)(=O)N4CCOCC4)c3c2=O)cc1Cl,-10,-7%[15.4 µM],-3.7,-23,-3%,-7
CCCCN(CC)CCCNC(=O)CC1Oc2ccccc2NC1=O (stereo not given),3,29%,53*,1,14%,?
N#Cc1c2c(c(NCCCN3CCOCC3)n3c1nc1ccccc13)CCC2,0,30%,-1.1,-8,-35%,-4

# Source: PubChem
